# Source: PubChem (National Center for Advancing Translational Sciences (NCATS))
# FEN1 inhibitor = blocks human flap endonuclease 1 | Recombinant FEN1 flap cleavage, fluorescence, 15 min | 0.35% of 390,000 active | P39748 | AID 588795 | Potency, µM (doses to about 114 µM), inactives show at the top dose activity change, negative = inhibition, actives largely listed as inhibitors; further: nearly all actives have a fitted effect of over 65% in size
# Target sequence (P39748 whole entry, looked up): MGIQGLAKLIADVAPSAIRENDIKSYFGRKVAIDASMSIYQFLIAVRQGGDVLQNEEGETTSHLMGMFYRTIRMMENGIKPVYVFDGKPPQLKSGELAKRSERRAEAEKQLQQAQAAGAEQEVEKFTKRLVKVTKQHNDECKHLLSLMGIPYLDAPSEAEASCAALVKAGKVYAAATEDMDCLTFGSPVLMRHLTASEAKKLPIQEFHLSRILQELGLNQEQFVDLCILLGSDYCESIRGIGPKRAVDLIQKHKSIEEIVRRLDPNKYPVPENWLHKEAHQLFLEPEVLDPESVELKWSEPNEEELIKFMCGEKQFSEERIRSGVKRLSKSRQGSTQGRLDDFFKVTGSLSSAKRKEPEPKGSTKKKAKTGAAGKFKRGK
#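 Reaction started by adding substrate (50 nM final) to 10 nM enzyme after 15 min room-temperature compound preincubation. Reads at 0 and 15 min, with data normalized and fitted to a four-parameter Hill equation.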
# TDP1 block = TDP1 (human) enzyme inhibition; Q9NUW8; recombinant TDP1, AlphaScreen DNA substrate cleavage; Potency, µM (highest dose often 130 µM), for inactives: at the highest dose activity change, negative = inhibition, hits mostly inhibitors; 0.28% of 350,000 active; AID 485290; further: nearly all actives have a fitted effect of over 40% in size
#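 Compounds were preincubated with Tdp1 (1 nM final) for 15 min at room temperature before substrate (15 nM final) started a 5 min reaction; beads (10 ug/ml final) were then added for 10 min before AlphaScreen detection.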
# Numbers without * were called inactive; · = not tested or not shown; [ ] = dose if it differs, or a comment. The call rests on the fitted dose curve; in most records, active means well fitted inhibition curve with a large enough effect; inconclusive means small, poorly fitted or top-dose-only effect; inactive means no such curve, though single readings can be large or run the other way. On the % scale 0 is the no-effect control and ±100 the full control effect; potency means the concentration at half of the fitted maximal effect. Some of the compounds tested, and most or all hits are left out here.
# The opening 19 entries, ahead of the listing:
SMILES,FEN1 inhibitor,TDP1 block
COc1cc(C(=O)Oc2ccccc2/C=N/NC(=O)c2ccc(C)cc2)cc(OC)c1OC,2%,1%
CCOc1ccccc1Nc1ncccc1C(=O)O,9%,1%
CCn1c(CSc2nnc(C)n2-c2ccccc2)nc2cc(S(=O)(=O)N(C)C)ccc21,4%,2%
NC(=O)CC(NC(=O)c1ccc(Br)cc1)c1ccc(N2CCC(Br)CC2)c([N+](=O)[O-])c1 (centres undefined),19%,0%
CC(=O)OC1C(N2CCCCC2)c2c(ccc(/C=C/C(=O)N3CCCCC3)c2O)OC1(C)C (centres undefined),-9%,0%
CCOC(=O)c1ccc(-c2ccc(/C=N/NC(=O)CN(c3cccc(C)c3)S(C)(=O)=O)o2)cc1,6%,-11%
c1ccc(-c2noc(CN3CCOCC3)n2)cc1,-7%,0%
CCOc1ccc(C2=NNC(c3cccnc3)=Nc3ccc(OC)cc32)cc1,1%,1%
Cc1nc2nc3c(c(=O)n2[nH]1)CCC3,-6%,2%
CC(=O)Nc1nc(C)cs1,2%,-3%
O=C(NCc1ccncc1)Nc1ccccc1F,-6%,-7%
COc1cccc(Cn2nc3c4cc(F)ccc4n(Cc4ccc(F)cc4)cc-3c2=O)c1,-6%,·
CCCc1cc(=O)[nH]c(SCc2ccc(F)cc2)n1,-10%,·
CC(C)CN(C(=O)CN(C)C(=O)Cc1ccccc1Cl)c1c(N)n(CC(C)C)c(=O)[nH]c1=O,-7%,1%
CCOC(=O)C1CCN(C(=O)CSc2n[nH]c(=O)[nH]c2=O)CC1,-2%,2%
CCn1cc(S(=O)(=O)Nc2cc(F)ccc2C)cn1,-4%,3%
O=C(NC1CCCCC1)N1CCN(C2CCCCC2)CC1,-1%,7%
COc1cccc(NC(=O)CCN2CCN(C)CC2)c1,10%,1%
Cc1ccsc1-c1nc(C(N)=O)c2[nH]c(=O)n(-c3ccc(Cl)cc3)c2n1,-19%,-1%

# The listing, from the start:
SMILES,FEN1 inhibitor,TDP1 block
COc1cc(C(=O)Oc2ccccc2/C=N/NC(=O)c2ccc(C)cc2)cc(OC)c1OC,2%,1%
CCOc1ccccc1Nc1ncccc1C(=O)O,9%,1%
CCn1c(CSc2nnc(C)n2-c2ccccc2)nc2cc(S(=O)(=O)N(C)C)ccc21,4%,2%
NC(=O)CC(NC(=O)c1ccc(Br)cc1)c1ccc(N2CCC(Br)CC2)c([N+](=O)[O-])c1 (centres undefined),19%,0%
CC(=O)OC1C(N2CCCCC2)c2c(ccc(/C=C/C(=O)N3CCCCC3)c2O)OC1(C)C (centres undefined),-9%,0%
CCOC(=O)c1ccc(-c2ccc(/C=N/NC(=O)CN(c3cccc(C)c3)S(C)(=O)=O)o2)cc1,6%,-11%
c1ccc(-c2noc(CN3CCOCC3)n2)cc1,-7%,0%
CCOc1ccc(C2=NNC(c3cccnc3)=Nc3ccc(OC)cc32)cc1,1%,1%
Cc1nc2nc3c(c(=O)n2[nH]1)CCC3,-6%,2%
CC(=O)Nc1nc(C)cs1,2%,-3%
O=C(NCc1ccncc1)Nc1ccccc1F,-6%,-7%
COc1cccc(Cn2nc3c4cc(F)ccc4n(Cc4ccc(F)cc4)cc-3c2=O)c1,-6%,·
CCCc1cc(=O)[nH]c(SCc2ccc(F)cc2)n1,-10%,·
CC(C)CN(C(=O)CN(C)C(=O)Cc1ccccc1Cl)c1c(N)n(CC(C)C)c(=O)[nH]c1=O,-7%,1%
CCOC(=O)C1CCN(C(=O)CSc2n[nH]c(=O)[nH]c2=O)CC1,-2%,2%

# Entries of single compounds, looked up by structure. Screens in order: FEN1 inhibitor | TDP1 block
# CCCc1cc(=O)[nH]c(SCc2ccc(F)cc2)n1 is entered as -10% | ·
# COc1cccc(Cn2nc3c4cc(F)ccc4n(Cc4ccc(F)cc4)cc-3c2=O)c1 is entered as -6% | ·
# CCOc1ccc(C2=NNC(c3cccnc3)=Nc3ccc(OC)cc32)cc1 is entered as 1% | 1%
# CC(=O)Nc1nc(C)cs1 is entered as 2% | -3%

# The list continues:
SMILES,FEN1 inhibitor,TDP1 block
CCn1cc(S(=O)(=O)Nc2cc(F)ccc2C)cn1,-4%,3%
O=C(NC1CCCCC1)N1CCN(C2CCCCC2)CC1,-1%,7%
COc1cccc(NC(=O)CCN2CCN(C)CC2)c1,10%,1%
Cc1ccsc1-c1nc(C(N)=O)c2[nH]c(=O)n(-c3ccc(Cl)cc3)c2n1,-19%,-1%
COc1cc(C(=O)Nc2nc3ccc4nc(C)sc4c3s2)cc(OC)c1OC,-6%,0%
CC(=C1C(=O)c2ccccc2C1=O)N1CCC(C(N)=O)(N2CCCCC2)CC1,1%,-4%
C[C@@H]1CN(C(=O)c2nc3ccc(Cl)cn3c2CN(C)CCc2cnn(C)c2)C[C@H](C)O1,22%,1%
CC(=O)c1ccc(NC(=O)C(C)N(C)CC(=O)Nc2cccc(F)c2)cc1 (centres undefined),4%,5%
Cc1ccc(N2CCCn3c2cc(C)c(C#N)c3=O)cc1C,-13%,2%
CCCCc1c(O)n2c(nc3ccccc32)[nH]c1=O,-1%,8%
O=C(COc1ccc([N+](=O)[O-])cc1)N/N=C/c1ccccn1,6%,4%
CCCCn1c(CNC(C)=O)nc2ccccc21,1%,2%
Cc1cc2oc(=O)cc(CN3CCN(Cc4ccccc4)CC3)c2cc1C,-13%,·
CCOC(=O)C1CCN(CC(=O)Nc2c(C(=O)OC)[nH]c3ccccc23)CC1,·,2%
CC1CCCCC1NC(=O)/C(C#N)=C/c1ccc(OCC(N)=O)cc1 (centres undefined),8%,-5%
CC12CCC(C(=O)NCc3ccccc3Cl)(CC1=O)C2(C)C (centres undefined),2%,0%
CC(=O)N1CCN(c2ccc(NC(=O)c3ccccc3)cc2)CC1,-5%,6%
CSCCC(NC(=O)OC(C)(C)C)C(=O)Oc1ccc2c(=O)c(-c3ccc4c(c3)OCCO4)coc2c1 (centres undefined),-15%,6%
Cn1c(CN2CCCCC2)nc2cc([N+](=O)[O-])ccc21,3%,3%
COc1ccc(CNC2CCN(Cc3ccccc3)CC2)cc1,14%,·
CCOC(=O)N1CCC(NC(=O)c2cc(S(=O)(=O)N3CCC4(CC3)OCCO4)ccc2F)CC1,-11%,5%
CC(C)(C)NC(=O)COC(=O)c1ccccc1Nc1ccc(SC(F)F)cc1,-1%,4%
Cc1ccc(S(=O)(=O)Nn2cnnc2)cc1,19%,·
COc1ccc(-n2nnnc2SCC(=O)Nc2cccc(C)n2)cc1OC,-3%,5%
CC(C)CC(CO)N1CCN(C(=O)c2cccc(C(F)(F)F)c2)CCC1=O (centres undefined),-7%,5%
CCn1c(SCC(=O)NCC(=O)Nc2ccc(F)cc2)nnc1-c1ccncc1,-1%,-1%
O=C(CN1C(=O)c2ccc([N+](=O)[O-])cc2C1=O)Nc1ccccc1N1CCCC1,4%,3%
Cc1ccc(C(=O)N/C(=C\c2ccc(C)o2)C(=O)O)cc1,11%,-12%
CC1=C(C(N)=O)C(c2ccccc2)n2nc(-c3ccncc3)nc2N1 (centres undefined),7%,-4%
Cn1c(=O)oc2cc(S(=O)(=O)Nc3ccc(Cl)cc3F)ccc21,-10%,-3%
COc1cc(C(=O)Oc2cccnc2)cc(OC)c1OC,4%,6%
C[N+]1(CC(=O)OCCCc2ccccc2)CCCC1,-10%,3%
COc1ccc(OC)c(NC(=O)CC2SC(=N)N(c3ccccc3)C2=O)c1 (centres undefined),2%,0%
O=C(c1sc2ccccc2c1Cl)N(Cc1ccccc1Cl)C1CCS(=O)(=O)C1 (centres undefined),1%,4%
Cc1nn(C)cc1C(C(=O)NC1CCCCC1)N(Cc1ccc(F)cc1)C(=O)c1cnccn1 (centres undefined),0%,5%
Cc1ccc(C(=O)Nc2ncccc2O)cc1S(=O)(=O)N1CCCCC1,-5%,-3%
COc1ccc(-c2cc(C(=O)NC3CCCC3)no2)cc1OC,-2%,-2%
CCc1nnc(NC(=O)c2ccc(-c3ccc(F)cc3)o2)s1,-12%,0%
Cc1ccnc(NC(=O)c2ccc3c(c2)C(=O)N(CCC(C)C)C3=O)c1,0%,5%
COc1ccc(C(=O)Nc2ccc(NC(=O)Cc3ccccc3)cn2)cc1,11%,-3%
CCn1cc(C(=O)N2CCc3ccccc32)c(=O)c2cc(S(=O)(=O)N3CCCCCC3)ccc21,-7%,6%
CC(=O)c1cccc(NC(=O)CN(C2CCCCC2)S(C)(=O)=O)c1,-6%,2%
CN(C)c1cc[n+](CC(=O)Nc2c(Cl)cc(Cl)cc2Cl)cc1,1%,-3%
Cn1c(/C=C/c2ccc(Cl)cc2Cl)c([N+](=O)[O-])c(=O)n(C)c1=O,19%,·
Cc1ccc2[nH]c(=O)c(CN(C)S(=O)(=O)c3cccc4nonc34)cc2c1,6%,2%
Cc1ccc(NS(=O)(=O)c2ccc(-c3ccc(=O)[nH]n3)o2)c(C)c1,-2%,5%
CCOC(=O)CC(NC(=O)c1cc2cc(Cl)cc(Cl)c2oc1=O)c1cccc([N+](=O)[O-])c1 (centres undefined),0%,5%
CN(C)CCNS(=O)(=O)c1ccc2c3c(cccc13)C(=O)N2,0%,·
COCC1CCN(c2nc3nonc3nc2N2CCSCC2)C1 (centres undefined),12%,6%
Cc1ccc(Oc2nc3ccccc3n3cccc23)cc1,-12%,-3%
CCOC(=O)N1CCN(C(=O)c2ccc(N(Cc3ccc(C)cc3)S(C)(=O)=O)cc2)CC1,-6%,0%
O=C(NCc1ccco1)C(=O)c1cn(CC(=O)N2CCCCC2)c2ccccc12,6%,-5%
CC(C)C(=O)N1CCN(C2=NS(=O)(=O)c3ccccc32)CC1,0%,-1%
CC12CN(NC(=O)c3ccc(Cl)cc3)C3(C#N)CC1CCC23C (centres undefined),-2%,0%
COc1ccc(OC)c(C(=O)Cn2cnc3ccccc3c2=O)c1,12%,7%[0.0935 µM]
COc1ccc2c(c1)SC1=NCCS(=O)(=O)N12,-18%,2%
O=C(O)c1ccccc1Nc1ccc2nonc2c1[N+](=O)[O-],-6%,·
COc1cc(/C=C2/C(=O)N(C)C(=S)N2C)ccc1OCc1cccc(F)c1,-3%,·
O=C(CSc1ccc2ccccc2n1)N1CCC(c2noc3ccc(F)cc23)CC1,-6%,0%
CC1CCCC(C)N1C(=O)COC(=O)CSc1ccc([N+](=O)[O-])cc1 (centres undefined),-6%,1%

# Next structures:
SMILES,FEN1 inhibitor,TDP1 block
O=C(COc1ccccc1)Nc1ccccc1N1CCN(c2ccc(F)cc2)CC1,-11%,6%
O=C(O)CC(Cc1ccccc1)c1ccc2c(c1)OCO2 (centres undefined),7%,5%
CCOc1ccc(NC(=O)CN2C(=O)c3ccccc3C2=O)cc1,-25%,·
Cc1cc(N2CCN(C)CC2)nc(N2CCOCC2)n1,0%,3%
